Mtb betalactam: beta-lactam sensitization of Mtb H37Rv; M. tuberculosis H37Rv growth with meropenem, percent inhibition; hits of this screen are not shown here; inhibition, % at 25 µM; 330,000 compounds, 0.27% hits;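 active means about 74% or more and at least 40 points above the plate without the antibiotic, then above 30% in a dose series; inconclusive means first-round hits that could not be retested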;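 further: growth measured after seven days incubation then overnight dye step; 0% = bacteria only wells and 100% = bacteria with antibiotic; twin plates without the antibiotic show which effects depend on it; some results filed as inactive read as strong as hits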
YopH PTP inh: blocks Yersinia enterocolitica YopH tyrosine phosphatase; fluorescence Ex485/Em525; inhibition, %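 (about 10 µM by stock and volumes)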; 140,000 compounds, 0.16% hits;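 active means inhibition of 50% or more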;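 further: controls were vehicle for no effect and minimum signal wells for full effect; inactives centre near -20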
Arbovirus anti: antivirals against arbovirus infection; arbovirus infection cell-based antiviral screen; 200,000 compounds, 0.37% hits; inhibition, % at 10 µM;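 active means inhibition from about 30%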;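 further: bluetongue infection of BSR cells; cell survival read as ATP light after 72 h; 0% = infected wells without compound and 100% = uninfected wells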
RecA intein inh: Mtb RecA intein splicing inhibition. P9WHJ3. cell-free RecA intein splicing, fluorescence. inhibition, %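 (about 9 µM by stock and volumes)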. 290,000 compounds, 0.75% hits. AID 2221; in the data active means inhibition above about 30%; inconclusive means no clear call, values can overlap the other calls;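 further: 0% = vehicle wells and 100% = reference inhibitor control wells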
Target sequence (P9WHJ3 whole entry, looked up): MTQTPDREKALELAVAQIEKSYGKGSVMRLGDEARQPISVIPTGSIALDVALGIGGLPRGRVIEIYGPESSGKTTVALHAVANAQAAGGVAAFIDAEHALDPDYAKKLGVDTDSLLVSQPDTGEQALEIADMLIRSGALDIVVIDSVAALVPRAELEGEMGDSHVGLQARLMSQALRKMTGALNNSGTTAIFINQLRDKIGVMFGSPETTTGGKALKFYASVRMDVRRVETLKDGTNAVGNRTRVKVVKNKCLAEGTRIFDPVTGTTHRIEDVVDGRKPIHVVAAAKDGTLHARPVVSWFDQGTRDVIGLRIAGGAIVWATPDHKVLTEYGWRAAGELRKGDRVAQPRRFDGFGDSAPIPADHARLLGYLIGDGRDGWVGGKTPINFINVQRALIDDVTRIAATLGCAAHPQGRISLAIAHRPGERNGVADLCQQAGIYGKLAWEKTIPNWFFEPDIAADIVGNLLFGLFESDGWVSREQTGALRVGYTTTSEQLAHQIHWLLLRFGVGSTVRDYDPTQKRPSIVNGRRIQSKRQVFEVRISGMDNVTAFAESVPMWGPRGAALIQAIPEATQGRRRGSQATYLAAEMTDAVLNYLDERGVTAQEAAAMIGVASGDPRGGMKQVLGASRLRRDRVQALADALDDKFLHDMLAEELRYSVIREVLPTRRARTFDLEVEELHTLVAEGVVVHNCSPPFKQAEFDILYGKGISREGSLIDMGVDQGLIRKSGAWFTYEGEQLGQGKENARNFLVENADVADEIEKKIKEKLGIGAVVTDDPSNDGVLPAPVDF
Mtb growth: M. tuberculosis H37Rv growth inhibitors, H37Rv strain (AID 1626); M. tuberculosis H37Rv growth inhibition; higher % means a stronger effect; inhibition, % at 10 µM, or IC50 in µM where a hit was titrated; 220,000 compounds, 0.95% hits;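 active means confirmed in a dose series; inconclusive means inhibition above 80% but not taken into the dose series; inactive means below 80% or under 30% at every dose of the series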;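 further: bacteria incubated seven days before Alamar blue readout; 0% = bacteria only wells and 100% = bacteria with antibiotic wells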
Arbovirus anti repeat: further read-out of Arbovirus anti, marked with its call; inhibition, %; measured here: 10K subset replicate screen; many hits read low in the repeat;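 first of two repeat runs on a subset; 0% = infected and 100% = uninfected wells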
Active calls of the source: *; u = inconclusive; x = no result given.

SMILES | Mtb betalactam | YopH PTP inh | Arbovirus anti | RecA intein inh | Mtb growth | others
CC1CC(C)CN(CCOCCSc2ccccc2)C1 (stereo unspecified) | -5 | 0 | -12 | 2.5 | -10%
CC(/C=N/NC(=O)Cc1cccs1)=C\c1ccccc1 | 12 | -14 | -10 | 2.0 | 16%
COc1ccc(CCn2c(C)c(C(C)=O)c(C(C)=O)c2C)cc1OC | -1 | x | 18 | -0.1 | 5%
O=C(/C=C/c1cn(-c2ccccc2)nc1-c1ccc2c(c1)OCCO2)NCCCN1CCOCC1 | 3 | x | -20 | x | 4%
CC(C)(C)c1ccc(C(=O)N2CCNC(=O)C2CC(=O)Nc2ccc(F)cc2)cc1 (stereo unspecified) | -12 | x | x | 0.6 | x
CN1C(N)=NC(=O)/C1=C/c1ccc(OC(F)(F)F)cc1 | 1 | x | 6 | 1.8 | 2%
COc1ccccc1OCCCn1cc(C#N)c2ccccc21 | 21 | -11 | 5 | 7.3 | 18%
O=C(COc1ccc2ccc(=O)oc2c1)N1CCN(C(=O)C2COc3ccccc3O2)CC1 (stereo unspecified) | -9 | x | x | 0.8 | x
Cc1nc2cccc(C(=O)Oc3ccc([N+](=O)[O-])cc3)c2o1 | -3 | x | 7 | -1.3 | 8%
O=C(O)CCCNC(=O)c1cccc(C(=O)NCCCC(=O)O)n1 | -4 | -35 | 6 | -0.4 | -1%

Compounds above with fluorine:
SMILES | Mtb betalactam | YopH PTP inh | Arbovirus anti | RecA intein inh | Mtb growth | others
CC(C)(C)c1ccc(C(=O)N2CCNC(=O)C2CC(=O)Nc2ccc(F)cc2)cc1 (stereo unspecified) | -12 | x | x | 0.6 | x
CN1C(N)=NC(=O)/C1=C/c1ccc(OC(F)(F)F)cc1 | 1 | x | 6 | 1.8 | 2%

Continued.
SMILES | Mtb betalactam | YopH PTP inh | Arbovirus anti | RecA intein inh | Mtb growth | others
CN(C(=O)COC(=O)c1cc(S(=O)(=O)N2CCOCC2)c(Cl)cc1Cl)C1CCS(=O)(=O)C1 (stereo unspecified) | -9 | x | 5 | 0.2 | 4%
O=C(CSc1nnc(CNC(=O)C23CC4CC(CC(C4)C2)C3)n1-c1ccccc1)Nc1ccc(F)cc1 | 55 | -16 | 5 | -3.8 | x
FC(F)(F)c1cc(-c2cccs2)n[nH]1 | -12 | 5 | 3 | 0.0 | -3%
Cn1c(=O)c2c(nc(-n3ccnc3)n2Cc2ccccc2)n(C)c1=O | 4 | -34 | 2 | -4.3 | -3%
CNC(=O)c1ccsc1NC(=O)c1coc2ccccc2c1=O | 0 | x | 6 | -1.3 | x
O=C(CSc1nnnn1-c1ccccc1)CC(=O)Nc1ccc(Cl)cc1 | 8 | 11 | -5 | -1.5 | 1%
Cc1cnc(NS(=O)(=O)c2ccccc2)c(C)n1 | -1 | x | x | -1.3 | x
COc1cccc(C(=O)NN=C2CCCC2)c1 | 4 | x | x | 1.2 | x
O=C(c1c(O)c2ccccc2oc1=O)C1CCC1 | 11 | -37 | -6 | 1.8 | 1%
CC1CCc2nn(CC(=O)N3CCN(C(=O)c4ccco4)CC3)cc2C1 (stereo unspecified) | -4 | -30 | 7 | -0.4 | -1% | Arbovirus anti repeat=1
COc1ccc(NC(=O)/C=N/O)cc1 | 0 | x | -6 | 1.8 | 5%
Cn1c(COc2ccc(Cl)cc2)nnc1SCc1ncc(-c2ccccc2)o1 | 13 | -4 | 3 | 3.5 | -6%
CC(=O)Nc1ccc(SCC(=O)c2ccc(Br)s2)cc1 | -2 | x | x | -1.4 | x
Cc1ccc(CNC(=O)CN2CCN(c3ccc(F)cc3)CC2)cc1 | 0 | x | x | 0.0 | x
O=C(NC(=S)Nc1cccnc1Cl)c1ccc(Cl)cc1 | 2 | x | x | -1.0 | x
CCOc1ccc(/C=N/OCC(=O)NC(c2ccccc2)c2ccccc2)cc1 | 0 | -15 | -1 | 1.0 | 2%
Cc1ccc(C(=O)O/N=C(\N)c2ccccn2)c(Cl)c1 | 25 | x | x | 2.6 | x
CCCCOc1ccc(C(C)(O)CCN2CCOCC2)cc1 (stereo unspecified) | -13 | 1 | 2 | 2.9 | -9%
CCC(C)[C@H]1CN=C(N)N1CCc1cc(C(F)(F)F)cc(C(F)(F)F)c1 (stereo partly specified) | 92 | x | x | -0.2 | 17%
Cc1cc(-c2ccccc2)nc(N/N=C/c2ccc(N(C)C)cc2)n1 | 97 | x | x | -1.8 | x
CN(C)C(=S)SCC(=O)Nc1ccc(Cl)cc1Cl | 6 | -1 | -3 | 1.5 | 0%
Cc1ccccc1CNC(=O)C(=O)NCCC1CCCCN1S(=O)(=O)c1ccccc1 (stereo unspecified) | -9 | x | x | 2.1 | x
CC1CCN(C(=O)Cn2c(=O)n(CCCC(=O)NCc3ccco3)c(=O)c3sccc32)CC1 | 1 | x | x | -0.1 | x
Cc1ccc(-n2nnnc2SCC(=O)N2CC(=O)Nc3ccccc32)cc1 | -4 | 10 | 0 | 1.2 | -17%
Cc1cc(C)nc(N/N=C/c2ccccc2OCc2cccc(Br)c2)n1 | -3 | -15 | 8 | -3.5 | 5%
CCN(CC)C(=O)c1ccc(NC(=O)c2cccc(C(F)(F)F)c2)cc1 | 0 | x | 3 | 1.7 | 9%
O=C(Nc1nc(-c2ccc([N+](=O)[O-])cc2)cs1)c1c(F)cccc1F | 0 | x | -18 | -0.1 | -5%
O=C(CC(C(=O)O)c1c[nH]c2ccccc12)c1ccccc1 (stereo unspecified) | -11 | x | -4 | 2.5 | -6%
CN(CC(=O)Nc1ccc(F)cc1)C(=O)c1cccc(S(=O)(=O)N2CCN(c3ccccc3)CC2)c1 | -5 | x | x | 4.1 | x
COc1cc2[nH]c(=S)nc(NCCc3ccc(C)cc3)c2cc1OC | x | x | -17 | x | 6%
Cc1ccc(NC(=S)NCCSc2ccc(Cl)cc2)c(C)c1 | 8 | -18 | -42 | 18 | 17%
N#CC1=C(N)OC2=C(CN(Cc3ccccc3)C/C2=C\c2cccnc2)C1c1cccnc1 (stereo unspecified) | 5 | 9 | 5 | 7.1 | 3%
CCOC(=O)c1cnc2ccc(Cl)cc2c1N1CCN(C)CC1 | -2 | -11 | -5 | -0.2 | -13%
O=C1Nc2ccc(Br)cc2/C1=N/N=C/C1=C(N2CCOCC2)C(=C\c2ccccc2)/CC1 | 90 | -23 | -5 | 7.3 | 78%
O=C(/C=C/c1ccccc1)c1ccccc1O | 44 | -36 | -8 | 0.3 | -8%
CCc1ccc(CCN2C(=O)c3ccccc3C2=O)nc1 | -4 | x | x | 2.3 | -8%
Cc1cc(F)c(F)c(C(=O)N2CCC(C)CC2)c1Cl | -5 | x | -4 | x | 5%
Cc1cccc2cc(/C=N/NC(=O)c3ccncc3)c(Cl)nc12 | 99 | x | x | -1.0 | u
Cc1nc(CN(C)C(=O)C2CCC(=O)N(CCc3cccc(F)c3)C2)cs1 (stereo unspecified) | -11 | x | x | 1.3 | x
O=C(CNC(=O)c1cccc(OC(F)F)c1)Nc1ccc(Cl)cc1 | -2 | x | x | -2.3 | x
O=C(N[C@@H](Cc1ccccc1)C(=O)O)c1ccc(C(F)(F)F)cc1 | 0 | x | 2 | -0.2 | -12%
CC1CCc2sc(C(=O)Nc3ccc(C(N)=O)cc3)cc2C1 (stereo unspecified) | 8 | x | x | 1.3 | -3%
CCOc1ccc(NC(=O)CSc2nc(C3CC3)nc3ccccc23)cc1 | 1 | x | -11 | 0.2 | 6%
CN(C)S(=O)(=O)Nc1ccc2c(c1)OCO2 | 0 | x | 3 | 0.9 | -1%
CCCCCN(C(=O)CCC(=O)OC(C)C(=O)c1ccc(Cl)cc1)c1c(N)n(CCCC)c(=O)[nH]c1=O (stereo unspecified) | -2 | x | x | 2.7 | x
O=C1CC(=O)N(Cc2cccs2)C(=O)N1 | 0 | -28 | -3 | -1.5 | 6%
CCc1ccc2c(c1)cc(CN(Cc1ccco1)C(C)=O)c1nnnn12 | -5 | x | 11 | -2.5 | 8%
COc1ccc(CNc2ncnc3cc(OC)c(OC)cc23)cc1 | -8 | -14 | 2 | -3.1 | 7%
Cc1sc2nc(CN3CCCC3)nc(N3CCN(C(=O)c4ccco4)CC3)c2c1C | 8 | x | -1 | -0.2 | -1%
CC(=O)C1=C(O)C(=O)N(CCc2c[nH]c3ccccc23)C1c1ccccc1 (stereo unspecified) | -10 | x | -1 | 0.5 | -6%
More compounds.
SMILES | Mtb betalactam | YopH PTP inh | Arbovirus anti | RecA intein inh | Mtb growth | others
Cc1cc(=O)cc(C)n1-c1ccc2c(c1)nc(C)n2-c1ccccc1 | -1 | x | x | 0.9 | -6%
CCOC(=O)Cc1[nH]nc2c1C(Cc1ccccc1)C(C#N)=C(N)O2 (stereo unspecified) | -1 | x | x | 28 | -6%
CCOC(=O)c1cc[nH]c1CC(=O)NC | 3 | x | x | 9.7 | -10%
COc1ccc(Cn2ccnc2)cc1Br | -17 | 3 | 5 | 4.7 | -4%
CCOc1ccc(CN(C(=O)c2ccccn2)c2ccc(OC)c(Cl)c2)cc1 | 0 | x | x | 7.4 | x
Cc1csc(C(=O)O)c1NC(=O)c1c(Cl)cccc1Cl | -1 | x | x | -1.2 | x
Cc1ccc(COc2ccccc2-c2cc(C(=O)N/N=C/c3cccnc3)[nH]n2)cc1 | -2 | x | x | -0.7 | 1%
CC(C)C(=O)O/N=C(\N)c1ccc(Oc2ccc(Cl)cc2)c([N+](=O)[O-])c1 | -5 | x | x | 10 | 10%
COc1cc(C(=O)NC2CC3CCCC(C2)N3C2CC2)cc(OC)c1OC (stereo unspecified) | 0 | -33 | 7 | x | -9%
CSc1nc(N)n2nc(-c3ccc(Cl)cc3)cc2n1 | -11 | x | x | -5.8 | 1%

Pulled one by one from the entries so far, 3 records:
SMILES | Mtb betalactam | YopH PTP inh | Arbovirus anti | RecA intein inh | Mtb growth | others
CC(C)C(=O)O/N=C(\N)c1ccc(Oc2ccc(Cl)cc2)c([N+](=O)[O-])c1 | -5 | x | x | 10 | 10%
CSc1nc(N)n2nc(-c3ccc(Cl)cc3)cc2n1 | -11 | x | x | -5.8 | 1%
COc1cc(C(=O)NC2CC3CCCC(C2)N3C2CC2)cc(OC)c1OC (stereo unspecified) | 0 | -33 | 7 | x | -9%

(next part)
SMILES | Mtb betalactam | YopH PTP inh | Arbovirus anti | RecA intein inh | Mtb growth | others
Cc1cc(C)n(-c2cccc(CN3CCC(CO)(Cc4ccccc4)CC3)c2)n1 | -4 | x | -12 | 1.6 | 4%
CCCCC(=O)OCc1nc2ccccc2s1 | 1 | x | 0 | 0.1 | 6%
COc1cccc(-c2nc(CS(=O)(=O)CC(=O)Nc3cc(F)ccc3F)c(C)o2)c1 | 10 | x | x | -1.1 | x
CCN(CC)C(=O)c1ccc(-c2nnc(OC)c3ccccc23)cc1 | -6 | x | x | 5.8 | 2%
CCOc1ccccc1NC(=O)CSc1nnnn1-c1ccc(C(=O)OC)cc1 | 0 | -27 | -2 | 2.2 | 7%
CCN(CC)CCN(C(=O)c1ccc(C(=O)c2ccccc2)cc1)c1nc2c(OC)cccc2s1 | 0 | x | x | 1.5 | x
COc1c(C)cc(C(=O)C2CCCN(C(=O)Cn3nc(C)nc3C)C2)cc1C (stereo unspecified) | -4 | x | x | -0.6 | x
CCC(=NCCc1ccc(OC)c(OC)c1)C1=C(O)CC(C)(C)CC1=O | 5 | x | -9 | -0.1 | -7%
COc1ccc(-c2csc(NC(=O)c3cccc(N4C(=O)CCC4=O)c3)n2)cc1C | -3 | x | x | -1.3 | x
COC(=O)CSc1nc2c(cnn2-c2ccc(Cl)cc2)c(=O)[nH]1 | 0 | x | x | 0.3 | x
O=C1CCCCCN1Cc1ccccc1 | -7 | -36 | -3 | 1.1 | -2%
Cc1ccc(N2C(=O)NC(=O)/C(=C\c3cn(CC(=O)O)c4ccccc34)C2=O)cc1 | 12 | x | x | 7.0 | x
CCCCN1CCc2c(c3ccccc3n2Cc2ccccc2)C1 | 14 | x | x | -4.0 | x
Cc1sc(NC(=O)c2cccs2)c(C(N)=O)c1C | 5 | -23 | -5 | x | 6% | Arbovirus anti repeat=0
NC(=O)N/N=C/c1ccc(-c2cccc(C(F)(F)F)c2)o1 | 19 | x | 7 | -0.5 | -2%
CCN(CC(=O)NCc1ccc(Cl)cc1)CC(=O)Nc1ccc(C(N)=O)cc1 | -6 | x | 0 | -0.4 | -2%
COc1ccccc1CNC(=O)c1cccc(-c2ccc(C)c3ccccc23)n1 | 15 | -9 | -29 | -2.3 | x
O=C(c1cc(-c2ccco2)on1)N1CCN(c2ccccc2)CC1 | 6 | -15 | -35 | 3.3 | -3%
COc1ccc(CCc2nnc(CCC(=O)NCc3ccc4ncccc4c3)o2)cc1 | 1 | x | 4 | -0.2 | -9%
Cc1ccc2oc(-c3ccc(C)c(NC(=S)NC(=O)c4cccs4)c3)nc2c1 | 35 | 4 | -30 | -1.8 | 1%
CCCCn1c(C)c(C(=O)O)c2cc(OC)ccc21 | 0 | -41 | 16 | 1.3 | 0%

Screens as filed in PubChem.

Not all compounds are listed; count on the stated rates, not on these rows.
